p53 mut binder – binders of human mutant p53, primary screen, biochemical, small molecule microarray, anti-GST fluorescence | calls only | small molecule microarray binding | mutant tumor protein p53 (GST-tagged), Homo sapiens | actives 0.4% (n = 17,000) | AID 624136, 2012;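 active means compounds whose four printed spots each glow above background more than chance allows, each with a p-value under 7%; compounds were printed on slides so no solution concentration is given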;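 further: about 2 pmol printed per array spot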
Myc binder – binders of human c-Myc, primary screen, biochemical, small molecule microarray, anti-His fluorescence | Myc proto-oncogene protein (Homo sapiens), P01106 | His-c-Myc binding | calls only | actives 1.5% (n = 17,000) | AID 624141, 2012;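 active means spot fluorescence over background with P-value below 7% in all four replicate spots, showing protein binding; compounds were printed on slides so no solution concentration is given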;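 further: score is binary with 100 for all four spots passing and 0 otherwise; about 2 pmol printed per array spot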
ID4 binder – binders of human ID4 protein, primary screen, biochemical, small molecule microarray, single point; Flag-ID4 binding, fluorescence F/B; actives 1.2% (n = 31,000); calls only; DNA-binding protein inhibitor ID-4 (Homo sapiens), P47928;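 active means spot signal over background at p below 0.07 in all four prints; compounds were printed on slides so no solution concentration is given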;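 further: a binder raises fluorescence above local background on the spot; about 2 pmol printed per array spot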
Target sequence (P47928 whole entry, looked up): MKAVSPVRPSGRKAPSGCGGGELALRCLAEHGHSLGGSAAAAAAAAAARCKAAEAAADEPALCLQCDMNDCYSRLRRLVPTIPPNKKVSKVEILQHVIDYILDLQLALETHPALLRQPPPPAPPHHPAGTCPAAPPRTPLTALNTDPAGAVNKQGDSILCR
STAT3 binder – STAT3 binders, primary screen, biochemical, small molecule microarray, single point, set 2; His-STAT3 binding, anti-His fluorescence; calls only; actives 0.2% (n = 17,000);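 active means compounds whose four printed spots each show fluorescence over background unusually high for their array block, chance value under 7%; compounds were printed on slides so no solution concentration is given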;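 further: about 2 pmol printed per array spot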
Target sequence (P40763 whole entry, looked up): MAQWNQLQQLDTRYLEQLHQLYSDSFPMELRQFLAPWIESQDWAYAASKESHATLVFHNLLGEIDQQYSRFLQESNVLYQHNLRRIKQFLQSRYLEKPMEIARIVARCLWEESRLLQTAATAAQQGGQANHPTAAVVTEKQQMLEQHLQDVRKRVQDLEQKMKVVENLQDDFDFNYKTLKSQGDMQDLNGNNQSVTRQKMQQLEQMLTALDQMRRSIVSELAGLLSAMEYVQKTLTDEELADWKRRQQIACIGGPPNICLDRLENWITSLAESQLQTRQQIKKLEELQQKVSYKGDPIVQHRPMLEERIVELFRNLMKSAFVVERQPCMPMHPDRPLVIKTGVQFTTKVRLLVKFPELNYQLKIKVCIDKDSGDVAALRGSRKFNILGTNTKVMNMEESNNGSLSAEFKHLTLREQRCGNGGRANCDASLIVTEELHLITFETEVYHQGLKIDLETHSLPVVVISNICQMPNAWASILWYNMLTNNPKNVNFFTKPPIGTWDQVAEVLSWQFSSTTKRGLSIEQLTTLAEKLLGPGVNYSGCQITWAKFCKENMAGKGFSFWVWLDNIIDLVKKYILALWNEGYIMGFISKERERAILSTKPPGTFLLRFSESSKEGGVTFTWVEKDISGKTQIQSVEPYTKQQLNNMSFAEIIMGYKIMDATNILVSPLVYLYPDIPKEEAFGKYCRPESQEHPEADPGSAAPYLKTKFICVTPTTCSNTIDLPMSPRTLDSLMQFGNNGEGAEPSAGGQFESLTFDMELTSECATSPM
Calls only; i = inactive; . = not tested or not shown; + = active, no number.

canonical_smiles	p53 mut binder	Myc binder	ID4 binder	STAT3 binder
COc1ccc(CN(C)C[C@H]2Oc3ccc(NC(=O)Nc4c(C)noc4C)cc3CC(=O)N([C@@H](C)CO)C[C@H]2C)cc1	i	i	i	i
C[C@H]1CN([C@@H](C)CO)C(=O)c2cccc(NC(=O)Nc3ccc(C(F)(F)F)cc3)c2O[C@@H]1CN(C)C(=O)NC1CCCCC1	i	i	i	+
C[C@H](CO)N1C[C@H](C)[C@H](CN(C)C(=O)Nc2ccc(C(F)(F)F)cc2)Oc2c(NS(=O)(=O)c3ccccc3)cccc2C1=O	i	i	i	i
CC(C)NC(=O)Nc1cccc2c1O[C@@H](CN(C)Cc1ccc(Cl)c(Cl)c1)[C@H](C)CN([C@H](C)CO)C2=O	i	i	i	i
COC(=O)Cc1c(CCC(=O)O)oc2cc(C)cc(O)c2c1=O	i	i	.	i
C[C@H](CO)N1C[C@H](C)[C@H](CN(C)Cc2ccc(C(F)(F)F)cc2)Oc2c(NS(=O)(=O)c3cccs3)cccc2C1=O	i	i	i	i
CNC[C@H]1Oc2c(NC(=O)c3ccc(-c4nccs4)cc3)cccc2C(=O)N([C@H](C)CO)C[C@H]1C	i	i	i	i
CNC[C@H]1Oc2c(NC(=O)c3cc(C)nn3C)cccc2C(=O)N([C@H](C)CO)C[C@H]1C	i	i	i	i
O=C(C1=C[C@H](c2csc3ccccc23)C[C@H](OCCCCO)O1)N1CCCCCCC1	i	i	i	i
C[C@H]1CN([C@@H](C)CO)C(=O)c2cc(NC(=O)Nc3cccc4ccccc34)ccc2O[C@H]1CN(C)C(=O)Nc1ccc2c(c1)OCO2	i	i	i	i
C[C@@H]1CN([C@@H](C)CO)C(=O)Cc2cc(NC(=O)Cn3cnnn3)ccc2O[C@H]1CN(C)S(=O)(=O)c1ccccc1	i	i	i	i
COc1ccc(CN(C)C[C@@H]2Oc3ccc(NC(=O)Nc4ccc(C(F)(F)F)cc4)cc3C(=O)N([C@@H](C)CO)C[C@@H]2C)cc1	i	i	i	i
COc1ccc(OC)c(CN=c2c([N+](=O)[O-])nn(-c3ccc(Cl)cc3)n2O)c1	i	i	i	i
CSc1ccccc1NC(=O)Cn1c(-c2cscn2)nc2ccccc21	i	i	i	i
C[C@H]1CCCCO[C@@H](CN(C)Cc2ccncc2)[C@@H](C)CN([C@@H](C)CO)C(=O)c2cc(NS(=O)(=O)c3ccccc3)ccc2O1	i	i	i	i
C[C@@H]1CCCCO[C@H](CN(C)C)[C@@H](C)CN([C@H](C)CO)C(=O)c2cc(NS(=O)(=O)c3cn(C)cn3)ccc2O1	i	i	i	i
O=C(NCCN1CCOCC1)C(=O)Nc1cccc(F)c1	i	i	i	i
C[C@@H]1CN([C@@H](C)CO)C(=O)c2cc(NC(=O)C3CC3)ccc2O[C@H]1CN(C)S(=O)(=O)c1cn(C)cn1	i	i	i	i
C[C@@H]1CCCCO[C@H](CN(C)Cc2ccncc2)[C@@H](C)CN([C@H](C)CO)C(=O)c2cc(NC(=O)Nc3ccccc3)ccc2O1	i	i	i	i
Cc1noc(C)c1NC(=O)N(C)C[C@H]1Oc2ccc(NC(=O)Cc3cn(C)c4ccccc34)cc2CC(=O)N([C@@H](C)CO)C[C@H]1C	i	i	i	i
C[C@@H]1CN([C@H](C)CO)C(=O)CCCn2cc(nn2)CO[C@H]1CN(C)Cc1ccc2cccnc2c1	i	i	i	i
C[C@H]1CN([C@@H](C)CO)C(=O)Cc2cc(NC(=O)NC3CCCCC3)ccc2O[C@H]1CN(C)C	i	i	i	i
C[C@@H]1CCCCO[C@H](CN(C)C(=O)CCCN(C)C)[C@H](C)CN([C@@H](C)CO)C(=O)c2cc(NC(=O)c3ccncc3)ccc2O1	i	i	i	i
C[C@@H]1CN([C@H](C)CO)C(=O)Cc2cc(NS(=O)(=O)c3cccs3)ccc2O[C@@H]1CN(C)C(=O)Nc1ccc(F)cc1	i	i	i	i
COc1cc(-c2oc3cc(O)c(OC)c(O)c3c(=O)c2O[C@@H]2O[C@H](CO[C@@H]3O[C@H](CO)[C@@H](O)[C@H](O)[C@H]3O)[C@@H](O)[C@H](O)[C@H]2O[C@@H]2OCC(O)(CO)[C@H]2O)ccc1O (stereo partly drawn)	i	i	i	i

The results go on:
canonical_smiles	p53 mut binder	Myc binder	ID4 binder	STAT3 binder
C[C@@H]1CN([C@H](C)CO)C(=O)Cc2cc(NC(=O)NC3CCCCC3)ccc2O[C@H]1CN(C)Cc1ccc2c(c1)OCO2	i	i	i	i
Cc1noc(C)c1S(=O)(=O)Nc1ccc2c(c1)CC(=O)N([C@@H](C)CO)C[C@@H](C)[C@H](CN(C)Cc1ccc(-c3ccccc3)cc1)O2	i	i	i	i
C/C(=C(/CCO)SSCC1CCCO1)N(C=O)Cc1cnc(C)nc1N (stereo not drawn)	i	i	i	i
O=C(NCCN1CCOCC1)[C@@]1(Cc2ccccc2)N=C(c2ccc(OCCCO)cc2)O[C@H]1c1ccccc1	i	i	i	i
Cc1nnc(SCc2cc(=O)[nH]c(Nc3nc(C)c4ccccc4n3)n2)s1	i	i	i	i
[N-]=[N+]=NCc1ccccc1C[C@@]1(C(=O)N2CCCCC2)N=C(c2ccc(OCCCO)cc2)O[C@@H]1c1ccccc1	i	i	.	+
C[C@@H]1CN([C@H](C)CO)C(=O)c2cc(NC(=O)Cn3cnnn3)ccc2O[C@@H]1CN(C)Cc1ccncc1	i	i	i	i
COc1ccccc1-c1cc(-c2ccccc2)nc(SCC(N)=O)c1C#N	i	i	i	i
C[C@H](CO)N1C[C@H](C)[C@@H](CN(C)C(=O)NC2CCCCC2)Oc2c(cccc2N(C)C)C1=O	i	i	i	i
C#Cc1ccc([C@@H]2C=C(C(=O)Nc3ccccc3)O[C@H](OCC)[C@H]2CCCO)cc1	i	i	i	i
C/C(=C\CCC1(C)C2CC3C(C2)C31C)C(=O)O (stereo not drawn)	i	i	i	i
CCC(=O)NC1Cc2ccccc2C(c2ccccc2)C1 (stereo not drawn)	i	i	i	i
C[C@H](CO)N1C[C@H](C)[C@@H](CN(C)CC2CCCCC2)Oc2ccc(NC(=O)Cn3cnnn3)cc2CC1=O	i	i	.	i
Cc1ccc(OCCSCc2nc3ccccc3[nH]2)cc1	i	i	i	i
COc1ccc2nc(NC3=NC(c4ccccc4)CC(=O)N3)nc(C)c2c1 (stereo not drawn)	i	i	+	i
C=CCNC(=O)[C@@H]1[C@H]2C(=O)O[C@H](c3ccccc3)[C@H](c3ccccc3)N2[C@H](c2ccc(O)cc2)[C@@]12C(=O)Nc1ccc(C#CC3(O)CCCCCC3)cc12	i	i	i	i
C[C@H](CO)N1C[C@H](C)[C@@H](CN(C)C(=O)Nc2ccccc2)OCCCC[C@H](C)Oc2ccc(NC(=O)c3ccccc3)cc2C1=O	i	i	i	i
COc1ccc(S(=O)(=O)Nc2ccc3c(c2)C(=O)N([C@@H](C)CO)C[C@H](C)[C@@H](CN(C)S(=O)(=O)c2ccc(Cl)cc2)OCCCC[C@H](C)O3)cc1	i	i	.	i
C=CCOC(=O)[C@H]1[C@@H]2C(=O)O[C@@H](c3ccccc3)[C@@H](c3ccccc3)N2[C@@H](c2ccc(OCCOC(=O)[C@@H]3C[C@@H]4C(=O)N[C@@H](CC(C)C)C(=O)N4[C@@H]3c3cccc(OCCO)c3)cc2)[C@]12C(=O)Nc1ccc(I)cc12	+	i	i	i
Cc1noc(C)c1NC(=O)Nc1cccc2c1O[C@H](CN(C)Cc1ccc(C(F)(F)F)cc1)[C@H](C)CN([C@H](C)CO)C2=O	i	i	i	i
C[C@@H]1CN([C@H](C)CO)C(=O)Cc2cc(NC(=O)Nc3ccc(F)cc3)ccc2O[C@H]1CN(C)Cc1ccc(C(=O)O)cc1	i	i	i	i
COc1ccc(OCc2nc3ccccc3n2Cc2ccccc2F)cc1	i	i	i	i
CC1=CC2(CO)C(=O)[C@]3(CO3)[C@H]1[C@H]1[C@]2(C)C=C(CO)C(=O)[C@]12CO2	i	i	i	i
O=C(NCc1cccnc1)c1cnn2c1NC(c1ccccc1)CC2C(F)(F)F (stereo not drawn)	i	i	i	i
Cc1noc(C)c1NC(=O)N(C)C[C@H]1Oc2ccc(NC(=O)Nc3ccc4c(c3)OCO4)cc2CC(=O)N([C@@H](C)CO)C[C@H]1C	i	i	i	i

Next section:
canonical_smiles	p53 mut binder	Myc binder	ID4 binder	STAT3 binder
C[C@@H]1CN([C@@H](C)CO)C(=O)c2cccc(NC(=O)NC3CCCCC3)c2O[C@H]1CN(C)C(=O)Nc1ccccc1	i	i	i	i
C[C@@H]1CN([C@@H](C)CO)C(=O)c2cccc(NC(=O)c3ccc(-c4nccs4)cc3)c2O[C@H]1CN(C)C(=O)Nc1ccccc1	i	i	i	i
C[C@@H]1CN([C@@H](C)CO)C(=O)Cc2cc(NC(=O)Nc3ccc(C(F)(F)F)cc3)ccc2O[C@@H]1CN(C)Cc1ccncc1	i	i	i	i
COC1CC(OC2C(C)OC(OC3C(C)OC(OC4C(C)OCC(OC5C(O)C(O[C@H]6CC[C@@]7(C)C(=CC[C@]8(O)C7CC(OC(=O)c7ccccc7)[C@@]7(C)[C@]8(O)CC[C@@]7(O)C(C)=O)C6)OC(CO)C5OC5OC(CO)C(O)C(O)C5O)C4OC)CC3OC)CC2OC)OC(C)C1O (stereo partly drawn)	i	+	i	i
CNC[C@H]1Oc2ccc(NC(=O)CCCN(C)C)cc2C(=O)N([C@H](C)CO)C[C@H]1C	i	i	i	i
Cc1ccc(NC(=O)CSc2nnc(-c3cccnc3)s2)cc1	i	i	i	i
C[C@@H]1CN([C@H](C)CO)C(=O)Cc2cc(NC(=O)Nc3ccccc3)ccc2O[C@H]1CN(C)C(=O)Nc1ccc(C(F)(F)F)cc1	i	i	i	i
CNC[C@H]1OCCCC[C@H](C)Oc2ccc(N(C)C)cc2C(=O)N([C@@H](C)CO)C[C@@H]1C	i	i	i	i
C=C(C)C(=O)O[C@H]1C[C@@]2(C)OC(=CC2=O)/C(COC(C)=O)=C\[C@H]2OC(=O)C(=C)C12 (stereo partly drawn)	i	i	.	i
C[C@H](CO)N1C[C@H](C)[C@H](CN(C)S(=O)(=O)c2ccc(Cl)cc2)OCc2cn(nn2)CCCC1=O	i	i	i	i
O=C1c2ccccc2C(=O)N1[C@@H]1CCCN(Cc2cccc(OCCO)c2)C1	i	i	.	i
COC(=O)c1c(NC(=O)CN2C(=O)c3ccccc3C2=O)sc(C)c1-c1ccccc1	i	i	i	i
C[C@@H]1CCCCO[C@@H](CN(C)C(=O)NC2CCCCC2)[C@@H](C)CN([C@@H](C)CO)C(=O)c2cc(N(C)C)ccc2O1	i	i	.	i
Cc1noc(C)c1S(=O)(=O)Nc1ccc2c(c1)C(=O)N([C@H](C)CO)C[C@@H](C)[C@@H](CN(C)C(=O)NC(C)C)OCCCC[C@@H](C)O2	i	i	i	i
COc1ccc(S(=O)(=O)Nc2ccc3c(c2)CC(=O)N([C@H](C)CO)C[C@H](C)[C@@H](CN(C)S(=O)(=O)c2cn(C)cn2)O3)cc1	i	i	i	i
C[C@@H]1CN([C@@H](C)CO)C(=O)Cc2cc(NS(=O)(=O)c3cccs3)ccc2O[C@H]1CN(C)S(C)(=O)=O	i	i	.	i
C[C@H]1CN([C@@H](C)CO)C(=O)CCCn2cc(nn2)CO[C@@H]1CN(C)C(=O)Nc1cccc2ccccc12	i	i	i	i
C=CCOC(=O)C(=O)/C=C/c1coc2ccccc2c1=O	i	i	.	i
C[C@H](CO)N1C[C@H](C)[C@@H](CN(C)C(=O)Nc2ccc(F)cc2)Oc2c(NS(=O)(=O)c3ccccc3)cccc2C1=O	i	i	.	i
Cc1noc(C)c1NC(=O)Nc1cccc2c1O[C@H](CN(C)C)[C@@H](C)CN([C@@H](C)CO)C2=O	i	i	i	i
CNC[C@@H]1OCCCC[C@@H](C)Oc2ccc(N)cc2C(=O)N([C@@H](C)CO)C[C@H]1C	i	i	i	i
COc1ccc(S(=O)(=O)Nc2ccc3c(c2)CC(=O)N([C@@H](C)CO)C[C@H](C)[C@@H](CN(C)CC2CC2)O3)cc1	i	i	i	i

High-throughput results: PubChem BioAssay, Broad Institute

This is a subset, so the mix of outcomes need not match the whole.
